# RE007 growth inh – less growth of the S. pombe RE007 Vpr strain | S. pombe RE007 Vpr strain, BacTiter-Glo ATP luminescence, 24 h; control for the full effect not named in the record | Potency, µM (top dose mostly 92.2 µM), without a hit: at the highest dose activity change, negative = less growth | 360,000 compounds, 0.21% hits; active = well fitted falling curve with a large enough effect; inconclusive = small, poorly fitted or top-dose-only effect; inactive = no such curve, though single readings can be large or run the other way;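 also: % is scaled to controls: 0 for no effect and ±100 for the full control effect; nearly all actives have a fitted effect of over 50% in size; the assay follows cell death caused by Vpr and the record does not say whether a fall means rescue or toxicity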
#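 Fission yeast RE007 carrying one integrated HIV-1 vpr copy, seeded at OD 0.01 in PMG+AL medium with 23 nL pinned compound. Grown 24 h at 30 degrees; viability read by BacTiter-Glo luminescence after 5 min.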
# NS1 function inh – blocks influenza NS1 protein function; 270,000 compounds, 0.4% hits; S. cerevisiae slowed by influenza A NS1, growth recovery by OD600; Potency, µM (doses to about 46.1 µM), for the others: top-dose activity, positive = more growth; also: actives are rising curves; nearly all actives have a fitted effect of over 50% in size
#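 Read-out: OD600 growth recovery of NS1-expressing budding yeast. Cells grown overnight at 30C in -URA glucose medium, washed, resuspended and diluted 1:100 in 2% galactose assay medium, pH 6.0. Same strain lacking NS1 served as positive control.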
# Cruzain inh noDet – blocks cruzain activity in detergent-free assay | 200,000 compounds, 2.3% hits | Potency, µM, without a hit: max response, negative = inhibition, actives largely listed as inhibitors | purified cruzain, Z-FR-AMC fluorescence, no detergent; active = well fitted curve in the direction sought with a large enough effect; inconclusive = small, poorly fitted or top-dose-only effect, or another doubt; inactive = no such curve, though single readings can be large; an effect the other way counts as inactive or inconclusive;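 also: plate controls were enzyme without inhibitor for no effect and buffer without enzyme for full effect; nearly all actives have a fitted effect of over 40% in size; top concentration of the series not given in the record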
# Target sequence (P25779 123-467 limits assumed): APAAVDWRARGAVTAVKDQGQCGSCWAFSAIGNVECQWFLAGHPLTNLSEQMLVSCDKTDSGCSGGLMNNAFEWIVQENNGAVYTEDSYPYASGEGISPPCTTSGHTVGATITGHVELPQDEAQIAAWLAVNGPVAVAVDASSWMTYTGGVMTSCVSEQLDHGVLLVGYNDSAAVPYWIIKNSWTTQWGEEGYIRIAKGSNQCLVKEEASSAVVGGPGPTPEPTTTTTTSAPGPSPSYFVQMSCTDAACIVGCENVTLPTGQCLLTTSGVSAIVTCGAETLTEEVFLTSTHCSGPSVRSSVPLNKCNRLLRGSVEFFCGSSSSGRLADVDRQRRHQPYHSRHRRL
#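 Purified cruzain at 1.5 nM, pre-incubated 15 min with compound at room temperature in 100 mM sodium acetate pH 5.5, 5 mM DTT, 0.00005% Triton X-100. Reaction started with 2 uM Z-FR-AMC; AMC fluorescence increase over 60 s gives rate.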
# Cruzain inh Det – inhibitors of Trypanosoma cruzi cruzain with detergent; P25779; purified cruzain, Z-FR-AMC fluorescence, 0.01% Triton; Potency, µM, for the others: max response, negative = inhibition, usual class: inhibitors; 200,000 compounds, 0.43% hits; active = well fitted curve in the direction sought with a large enough effect; inconclusive = small, poorly fitted or top-dose-only effect, or another doubt; inactive = no such curve, though single readings can be large; an effect the other way counts as inactive or inconclusive;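 also: plate controls were neutral wells for no effect and buffer without enzyme for full effect; nearly all actives have a fitted effect of over 40% in size; top concentration of the series not given in the record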
#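 Compounds were screened in titration against cruzain (1.5 nM) with 0.01% Triton X-100 to counter colloidal aggregation. Activity was the AMC fluorescence increase over 60 s after adding 2 uM Z-FR-AMC at pH 5.5.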
# LASV entry inh – inhibitors of Lassa virus binding or cell entry | AID 540256 | 300,000 compounds, 1.2% hits | Lassa virus pseudotype entry inhibition, cell reporter; control for the full effect not named in the record | Potency, µM (titrated, usually from 37.9 µM), for the others: top-dose activity change, negative = inhibition, most hits filed as inhibitors; active means well fitted inhibition curve with a large enough effect; inconclusive means small, poorly fitted or top-dose-only effect, or effect the other way; inactive means flat fitted curve, though single readings scatter; tested in HEK293 cells; also: % is scaled to controls: 0 for no effect and ±100 for the full control effect; nearly all actives have a fitted effect of over 50% in size; luciferase read-out
# SARS PLpro yeast – SARS-CoV PLP inhibition in yeast | S. cerevisiae expressing SARS-CoV PLpro, growth rescue; control for the full effect not named in the record | Potency, µM (highest dose often 32.9 µM), for inactives: at the top dose activity, positive = growth rescue | 330,000 compounds, 0.19% hits | AID 485353; also: 0% is about no effect; nearly all actives have a fitted effect of over 55% in size; growth read by luminescence after 48 h
# StopGo reporter – lowers the luciferase signal of an FMDV 2A StopGo reporter. Potency, µM (series often up to 57.9 µM), for the others: at the top dose signal change, negative = less light. AID 1159524. human cells with a luciferase reporter of 2A StopGo recoding; control for the full effect not named in the record. 410,000 compounds, 1.2% hits; active = well fitted falling curve with a large enough effect; inconclusive = small, poorly fitted or top-dose-only effect; inactive = no such curve, though single readings can be large or run the other way; tested in HEK293T cells; also: % is scaled to controls: 0 for no effect and ±100 for the full control effect; nearly all actives have a fitted effect of over 45% in size; luciferase light after 4 h
# Marburg entry inh – blocks Marburg virus binding to or entry into cells; 300,000 compounds, 1.8% hits; Potency, µM (titrated, usually from 37.8 µM), for inactives: top-dose activity change, negative = inhibition, usual class: inhibitors; AID 540276; Marburg virus pseudotyped entry inhibition, cell reporter; control for the full effect not named in the record; about a third of the inactives were read at about 46 µM; active = well fitted inhibition curve with a large enough effect; inconclusive = small, poorly fitted or top-dose-only effect, or effect the other way; inactive = flat fitted curve, though single readings scatter; tested in HEK293 cells; about a fifth of its hits are not listed in these tables; also: % is scaled to controls: 0 for no effect and ±100 for the full control effect; luciferase read-out
# * hit, by the source's call; ? = inconclusive; . = no result given; [ ] = remark or other dose. Unless noted, calls follow the shape of the dose curve; as a rule, active means well fitted rising curve with a large enough effect; inconclusive means small, poorly fitted or top-dose-only effect; inactive means no such curve, though single readings can be large or run the other way. Potency is read from the fitted curve at half-maximal effect.
# Sample of the layout:
SMILES,RE007 growth inh,NS1 function inh,Cruzain inh noDet,Cruzain inh Det,LASV entry inh,SARS PLpro yeast,StopGo reporter,Marburg entry inh
COc1cc2[nH]c(=O)c(C(=O)NCc3ccc(F)cc3)c(O)c2cc1OC,0%,-6%,.,.,.,-1%,-12%,.
Brc1ccccc1/C=N/Nc1ccccn1,-5%,.,.,.,?,-6%,42%[activator],?
CCn1nccc1C(=O)Nc1ccc(Cl)cc1Cl,-5%,?,-6%,0.8%,10%,-2%,17%,25%
O=C(Nc1ccc(Cl)cc1C(=O)NCCN1CCOCC1)c1ccco1,-9%,-3%,2%,-1.1%,9%,2%,-17%,13%
O=C1CC(c2ccco2)c2ccc3ccccc3c2N1 (stereo not drawn),2%,-12%,-19%,-6.0%,?,4%,-15%,7%
CCN(CC(=O)Nc1c(F)cccc1F)C(=O)CNC(=O)c1ccc(C)s1,-4%,-35%,.,.,-5%,-3%,3%,6%

# All compounds of this part, from the start:
SMILES,RE007 growth inh,NS1 function inh,Cruzain inh noDet,Cruzain inh Det,LASV entry inh,SARS PLpro yeast,StopGo reporter,Marburg entry inh
COc1cc2[nH]c(=O)c(C(=O)NCc3ccc(F)cc3)c(O)c2cc1OC,0%,-6%,.,.,.,-1%,-12%,.
Brc1ccccc1/C=N/Nc1ccccn1,-5%,.,.,.,?,-6%,42%[activator],?
CCn1nccc1C(=O)Nc1ccc(Cl)cc1Cl,-5%,?,-6%,0.8%,10%,-2%,17%,25%
O=C(Nc1ccc(Cl)cc1C(=O)NCCN1CCOCC1)c1ccco1,-9%,-3%,2%,-1.1%,9%,2%,-17%,13%
O=C1CC(c2ccco2)c2ccc3ccccc3c2N1 (stereo not drawn),2%,-12%,-19%,-6.0%,?,4%,-15%,7%
CCN(CC(=O)Nc1c(F)cccc1F)C(=O)CNC(=O)c1ccc(C)s1,-4%,-35%,.,.,-5%,-3%,3%,6%
COc1cc(CN(C(=O)c2ccco2)C2CCS(=O)(=O)C2)cc(OC)c1OC (stereo not drawn),2%,3%,.,.,.,12%,-6%,.
CCOC(=O)c1sc(Nc2nc3c(OC)cccc3s2)cc1C,0%,-6%,-2%,-13%,?,-128%,-32%,?
O=C(CSCc1ccc(F)cc1)NCc1cccs1,13%,.,.,.,13%,-1%,12%,-16%
COc1ccc(NC(=O)c2ccc3ccccc3c2)cc1,9%,5%,.,.,.,1%,37%[activator],.
Cc1cc(NC(=O)CSc2nnnn2-c2ccccc2)no1,23%,1%,.,.,-14%,-1%,-12%,-8%[46.1 µM]
Clc1ccc(CNc2ncnc3onc(-c4ccc(Cl)cc4)c23)cc1,.,.,4%,-2.8%,-14%[46.1 µM],.,-28%,?
COc1ccccc1N1CCN(S(=O)(=O)CCNC(=O)COc2ccc(C(C)C)cc2)CC1,.,.,?,-8.3%,?,.,?,.
CC(C)(C)c1ccc(C2NC(=O)c3n[nH]c(-c4cccs4)c32)cc1 (stereo not drawn),.,.,-4%,-14%,-25%[46.1 µM],.,-15%,?
COc1ccc(-c2nc3c(C(=O)NCCN(C)C)cccc3c3ccccc23)cc1,4%,.,.,.,?,.,-24%,?
Cc1ccc(C2=NC(C)(C)NC2=O)cc1,-17%,-1%,-5%,-3.1%,18%,?,15%,-2%
CNc1nnc(-c2ccco2)s1,3%,2%,.,.,.,0%,19%,.
Cc1cc(C)nc(NC(=O)NS(=O)(=O)Nc2ccc(Br)cn2)n1,3%,4%,4%,1.7%,4%,7%,1%,-1%
COc1ccc(C(=O)/C=C2/c3ccccc3CC(C)(C)N2C)cc1OC,.,6%,-2%,-1.9%,-1%,1%,-13%,5%
Fc1c(F)c(F)c(NC2=NCCCCC2)c(F)c1F,-4%,3%,.,.,0%,1%,8%,1%[46.1 µM]
CC(=O)c1cccc(NC(=O)C(C)OC(=O)c2cc(=O)[nH]c3ccccc23)c1 (stereo not drawn),9%,.,.,.,21%,-12%,0%,20%
O=C(NCCc1ccccc1)C1CCN(S(=O)(=O)c2ccc(-n3cnnn3)cc2)CC1,2%,-2%,-4%,-14%,4%,0%,9%,7%
Cc1noc(NS(=O)(=O)c2ccc(NC(=O)/C=C/c3ccc(Br)cc3)cc2)c1C,2%,-5%,.,.,-5%,-1%,-15%,0%
N=C1c2c(cc(=O)n3c2[nH]c2ccccc23)CN1CCN1CCOCC1,-3%,.,.,.,25%,0%,17%,0%[46.1 µM]
COc1ccc(C/C(C)=N/NC(=O)c2ccc(Cl)cc2)cc1,1%,.,.,.,-8%,-6%,-2%,12%[46.1 µM]
# New compounds follow:
SMILES,RE007 growth inh,NS1 function inh,Cruzain inh noDet,Cruzain inh Det,LASV entry inh,SARS PLpro yeast,StopGo reporter,Marburg entry inh
CCOC(=O)N1CCN(C(=S)NC(=O)c2nn(C)cc2Br)CC1,-12%,2%,.,.,12%[46.1 µM],1%,-3%,25%[46.1 µM]
Cc1ccc(-c2nnc(N3CCN(CCO)CC3)c3ccccc23)cc1,-3%,-4%,.,.,?,-1%,-12%,13%[46.1 µM]
CCCN1CCC(NC(=O)Cc2cccc(C)c2)CC1,1%,0%,.,.,18%[46.1 µM],-1%,6%,4%[46.1 µM]
Cc1cc(C(=O)c2ccc(C(C)(C)C)cc2)c(NC(=O)CCl)s1,.,-31%,-6%,-5.5%,?,-37%,35µM*,?
S=C1NCCOCCOCCOCCNC(=S)N2CCOCCOCCN1CCOCCOCC2,2%,-1%,.,.,2%[46.1 µM],0%,8%,-17%[46.1 µM]
CCn1c(COc2ccc(Cl)c(C)c2)nnc1SCC(=O)N1CCCC1,-11%,-8%,?,2.2%,-12%,-8%,-26%,1%
O=C(NC1CCCCC1)C1CCCN(c2nnnn2-c2ccccc2)C1 (stereo not drawn),-7%,-11%,0%,-3.4%,-17%,6%,1%,-26%
CC(C)(C)NC(=O)[C@@H]1C[C@@H]2CCCC[C@@H]2CN1C[C@@H](O)[C@H](Cc1ccccc1)NC(=O)[C@H](CC(N)=O)NC(=O)c1ccc2ccccc2n1,3%[18.4 µM],-17%,?,-4.4%,.,2%,?,.
Oc1c(Br)cc(Br)cc1/C=N/N1CCN(Cc2ccccc2)CC1,0%,3%,1%,4.2%,-14%,10%,-28%,?
O=C(CC(=O)c1ccccc1)CC(O)(C=Cc1ccccc1)c1ccccc1 (stereo not drawn),?,.,.,.,7%[46.1 µM],.,33%[activator],?
CN(C)c1ccc(C(=O)/C=C/c2cccnc2)cc1,-12%,-4%,.,.,.,-4%,-16%,.
c1ccc(-c2noc(C34CC5CC(CC(C5)C3)C4)n2)nc1,-4%,1%,4%,0.5%,?,1%,31%[activator],-9%[46.1 µM]
CCOC(=O)NC(NC(=S)Nc1ccc(OCC)cc1)C(Cl)(Cl)Cl (stereo not drawn),14%,13%,?,-11%,-1%,-9%,-6%,-4%
Cc1ccc(C)c(N(CC(N)=O)S(C)(=O)=O)c1,2%,8%,0%,3.3%,8%,1%,3%,-3%[46.1 µM]
Cc1ccc(C(=O)Oc2ccccc2N2C(=O)C3CCC(C)CC3C2=O)cc1 (stereo not drawn),11%[3.69 µM],-61%,-8%,-2.0%,-4%,-18%,3%,14%
CCC(C)OC1OC(CO)C(O)C(O)C1NC(C)=O (stereo not drawn),18%,3%,5%,1.2%,29%,7%,-8%,-5%
Cn1cc(S(=O)(=O)N2CCCC2)cc1C(=O)Nc1ccc(C(F)(F)F)cc1,.,.,-18%,-8.8%,-15%[46.1 µM],.,-23%,.
Cc1cccc2c(=O)oc(-c3ccccc3Cl)nc12,-7%,-13%,.,.,?,0%,-9%,5%[46.1 µM]
O=C1CC2(CCCC2)C(=O)N1c1ccc(S(=O)(=O)NCC2CC2)cc1Cl,9%,-3%,.,.,?,1%,44%[activator],-18%[46.1 µM]
Cc1nnc(SCC(=O)Nc2c(Cl)cccc2Cl)[nH]c1=O,7%,-1%,-13%,3.1%,.,4%,-15%,.
O=C(COC(=O)c1ccc(NS(=O)(=O)c2cccs2)cc1O)NCc1ccccc1,5%,.,.,.,?,1%,4%,?
Cc1c(C(=O)Nc2ccc(C(C)C)cc2)sc2nc[nH]c(=O)c12,.,.,?,-3.2%,?,.,2%,.
CCCN(CCC)C(=O)Cn1c(=O)n(-c2ccc(Cl)cc2)c(=O)c2c3c(sc21)CCCCC3,.,.,-14%,-1.1%,10%[46.1 µM],.,-22%,20%[46.1 µM]
CC1(C)CC(=O)c2cnc(NCC3CCCO3)nc2C1 (stereo not drawn),0%,4%,-8%,2.6%,12%,4%,28%,?

# Compound activity: PubChem, National Center for Advancing Translational Sciences (NCATS)
